Bioassay records deposited in PubChem by Broad Institute.
UUG fidelity – yeast start codon fidelity modulation; S. cerevisiae UUG-firefly luciferase reporter, luminescence/redox ratio; activity score, % at 18.7 µM; actives 0.13% (n = 350,000); AID 602363;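 active = replicate mean at a twofold rise or more, about +100% in these data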;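 also: firefly luciferase made from a UUG start codon reports start codon fidelity; reporter light over untreated wells divided by growth signal over untreated wells; some hits fall short of that in this replicate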
HIV Env fusion – HIV envelope-mediated fusion inhibition | HeLa-JRFL Env/CEM21 cell fusion, luciferase | inhibition, % at 12.3 µM | actives 1.1% (n = 360,000) | AID 651610;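 active = mean replicate inhibition score of at least 50 and every replicate individually at or above 50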;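 also: 0% = plate neutral controls and 100% = maraviroc near 300 nM; one replicate is shown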
Starred values were filed as active, the others as inactive; & = joins results of further samples; [ ] = dose if it differs, or a comment. Some of the compounds tested; rates above refer to the full screens.

No.	structure	UUG fidelity	HIV Env fusion
1	COc1ccc(S(=O)(=O)N(C)C[C@H]2Oc3ccc(N(C)C)cc3CC(=O)N([C@H](C)CO)C[C@@H]2C)cc1	-14	-8[16.7 µM]
2	C[C@@H]1CN([C@@H](C)CO)C(=O)c2cc(C#Cc3cccnc3)cnc2O[C@@H]1CN(C)Cc1cccnc1	-1	-3[16.7 µM]
3	C[C@@H]1CN([C@H](C)CO)C(=O)c2cc(C#CC3CCCC3)cnc2O[C@H]1CN(C)C(=O)C1CC1	-6	23[16.7 µM]
4	C[C@H](CO)N1C[C@H](C)[C@@H](CN(C)CC2CCOCC2)Oc2ncc(C#CCc3ccccc3)cc2C1=O	27	-3[16.7 µM]
5	C/C=C/c1ccc2c(c1)O[C@H](CN(C)C(=O)Cc1ccccn1)[C@@H](C)CN([C@@H](C)CO)S2(=O)=O	8	3[16.7 µM]
6	C[C@@H]1CCCCO[C@H](CN(C)S(=O)(=O)c2cccs2)[C@@H](C)CN([C@@H](C)CO)C(=O)c2cc(NC(=O)C3CCCCC3)ccc2O1	-6	-73[16.7 µM]
7	CC(=O)N(C)C[C@H]1Oc2ncc(C#C[C@H](C)O)cc2C(=O)N([C@H](C)CO)C[C@@H]1C	-13	-19[16.7 µM]
8	C[C@H](CO)N1C[C@H](C)[C@@H](CN(C)Cc2ccncc2)OCCCC[C@H](C)Oc2ccc(NS(=O)(=O)c3ccccc3)cc2C1=O	-11	-12[16.7 µM]
9	CC(C)NC(=O)N(C)C[C@H]1OCCCC[C@@H](C)Oc2ccc(NS(C)(=O)=O)cc2C(=O)N([C@H](C)CO)C[C@H]1C	2	14[16.7 µM]
10	CC(C)NC(=O)N(C)C[C@@H]1Oc2cc(C3=CCCC3)ccc2S(=O)(=O)N([C@H](C)CO)C[C@@H]1C	-14	-7[16.7 µM]
11	CN(C)C(=O)C[C@@H]1CC[C@H](NC(=O)C2CC2)[C@@H](CO)O1	-16	-16[16.7 µM]
12	COc1ccc(S(=O)(=O)Nc2ccc3c(c2)CC(=O)N([C@H](C)CO)C[C@H](C)[C@@H](CN(C)S(=O)(=O)c2c(C)noc2C)O3)cc1	10	-12[16.7 µM]
13	C[C@@H]1CN([C@@H](C)CO)C(=O)c2cc(NC(=O)C3CC3)ccc2O[C@@H]1CN(C)S(=O)(=O)c1ccc(F)cc1	33	8[16.7 µM]
14	O=C(N[C@@H]1CC[C@@H](CCNC(=O)C2CCCCC2)O[C@@H]1CO)c1ccccn1	7	-19[16.7 µM]
15	CC(C)NC(=O)Nc1ccc2c(c1)C(=O)N([C@@H](C)CO)C[C@@H](C)[C@H](CN(C)Cc1ccc(C(=O)O)cc1)O2	-9	0[16.7 µM]
16	COc1ccc(CN(C)C[C@@H]2Oc3ccc(NC(=O)Nc4ccc(OC)cc4)cc3C(=O)N([C@@H](C)CO)C[C@H]2C)cc1	4	6[16.7 µM]
17	C[C@@H]1CN([C@H](C)CO)C(=O)c2cc(NC(=O)C3CC3)ccc2O[C@H]1CN(C)C(=O)NC1CCCCC1	-3	0[16.7 µM]
18	Cc1noc(C)c1NC(=O)N[C@@H]1CC[C@@H](CC(=O)Nc2ccccc2)O[C@@H]1CO	4	-27[16.7 µM]
19	CCNC(=O)Nc1ccc2c(c1)C(=O)N(C)[C@H]1CC[C@H](CC(=O)NCc3cccc(F)c3)O[C@@H]1CO2	1	-6[16.7 µM]
20	C[C@H]1CN([C@@H](C)CO)C(=O)c2cc(N(C)C)ccc2O[C@H]1CN(C)Cc1ccccc1	-9	-3[16.7 µM]

Nos. 10–14, quoted:
No.	structure	UUG fidelity	HIV Env fusion
10	CC(C)NC(=O)N(C)C[C@@H]1Oc2cc(C3=CCCC3)ccc2S(=O)(=O)N([C@H](C)CO)C[C@@H]1C	-14	-7[16.7 µM]
11	CN(C)C(=O)C[C@@H]1CC[C@H](NC(=O)C2CC2)[C@@H](CO)O1	-16	-16[16.7 µM]
12	COc1ccc(S(=O)(=O)Nc2ccc3c(c2)CC(=O)N([C@H](C)CO)C[C@H](C)[C@@H](CN(C)S(=O)(=O)c2c(C)noc2C)O3)cc1	10	-12[16.7 µM]
13	C[C@@H]1CN([C@@H](C)CO)C(=O)c2cc(NC(=O)C3CC3)ccc2O[C@@H]1CN(C)S(=O)(=O)c1ccc(F)cc1	33	8[16.7 µM]
14	O=C(N[C@@H]1CC[C@@H](CCNC(=O)C2CCCCC2)O[C@@H]1CO)c1ccccn1	7	-19[16.7 µM]

More compounds follow:
No.	structure	UUG fidelity	HIV Env fusion
21	C[C@H]1CCCCO[C@@H](CN(C)S(=O)(=O)c2ccccc2)[C@@H](C)CN([C@@H](C)CO)C(=O)c2cc(NC(=O)CCC(F)(F)F)ccc2O1	37	26[16.7 µM]
22	C[C@H](CO)N1C[C@H](C)[C@H](CN(C)Cc2ccc(C(=O)O)cc2)Oc2c(NC(=O)c3ccc(-c4nccs4)cc3)cccc2C1=O	8	1[16.7 µM]
23	CCCNC(=O)N(C)C[C@@H]1Oc2cc(C#CCOC)ccc2S(=O)(=O)N([C@@H](C)CO)C[C@@H]1C	18	15[16.7 µM]
24	O=C(Nc1ccc2c(c1)OCO2)N[C@@H]1CC[C@H](CCNC(=O)C2CCCCC2)O[C@H]1CO	5	21[16.7 µM]
25	C[C@@H]1CN([C@@H](C)CO)C(=O)c2cc(NC(=O)Nc3ccc4c(c3)OCO4)ccc2O[C@@H]1CN(C)S(=O)(=O)c1ccc(Cl)cc1	-1	-33[16.7 µM]
26	Cc1cc(C(=O)Nc2ccc3c(c2)C(=O)N(C)[C@H]2CC[C@@H](CC(=O)N[C@H](C)c4ccccc4)O[C@H]2CO3)no1	10	14[16.7 µM]
27	C[C@@H]1CN([C@H](C)CO)C(=O)Cc2cc(NC(=O)Nc3ccccc3)ccc2O[C@H]1CN(C)S(=O)(=O)c1cn(C)cn1	-6	-121[16.7 µM]
28	C[C@@H]1CN([C@H](C)CO)C(=O)c2cc(NC(=O)Nc3ccc(C(F)(F)F)cc3)ccc2O[C@@H](C)CCCCO[C@H]1CN(C)C(=O)c1ccccc1	-14	56*[16.7 µM]
29	COc1ccc(-c2cnc3c(c2)C(=O)N([C@H](C)CO)C[C@@H](C)[C@@H](CN(C)Cc2ccc(C(=O)O)cc2)O3)cc1	-1	12[16.7 µM]
30	C[C@@H]1CN([C@H](C)CO)C(=O)Cc2cc(NC(=O)C3CC3)ccc2O[C@@H]1CN(C)C(=O)Nc1ccc(C(F)(F)F)cc1	-4	15[16.7 µM]
31	C[C@H](CO)N1C[C@H](C)[C@H](CN(C)Cc2ccncc2)Oc2ncc(/C=C/c3ccccc3)cc2C1=O	-2&-10	28&-4[16.7 µM]
32	C[C@@H]1CN([C@@H](C)CO)C(=O)c2cc(NC(=O)c3ccncc3)ccc2O[C@H]1CN(C)S(C)(=O)=O	-7	0[16.7 µM]
33	C[C@@H]1CN([C@H](C)CO)C(=O)c2cc(-c3ccccc3)cnc2O[C@@H]1CN(C)C(=O)Cc1ccccn1	-15	-2[16.7 µM]
34	C[C@H]1CN([C@@H](C)CO)C(=O)c2cccc(NS(=O)(=O)c3cn(C)cn3)c2O[C@@H]1CN(C)S(=O)(=O)c1cccs1	-14	10[16.7 µM]
35	C[C@H](CO)N1C[C@H](C)[C@H](CN(C)S(=O)(=O)c2cccs2)Oc2ccc(NC(=O)c3ccncc3)cc2CC1=O	-11	33[16.7 µM]
36	CCNC(=O)Nc1ccc2c(c1)C(=O)N(C)[C@@H]1CC[C@H](CC(=O)NCC3CCCCC3)O[C@@H]1CO2	4	-8[16.7 µM]
37	N#C[C@H]1[C@H](c2ccc(-c3ccccc3)cc2)[C@H](CO)N1C(=O)Cc1ccncc1	-8	6[16.7 µM]
38	CCCc1cn(CC[C@H]2CC[C@H](NC(=O)C3CCCC3)[C@@H](CO)O2)nn1	7	5[16.7 µM]
39	C[C@@H]1CN([C@@H](C)CO)C(=O)Cc2cc(NS(=O)(=O)c3ccc(F)cc3)ccc2O[C@H]1CN(C)S(=O)(=O)c1cn(C)cn1	-1	-5[16.7 µM]
40	O=C(C[C@H]1CC[C@H]2[C@@H](COC[C@@H](O)CN2C(=O)Nc2ccc(Cl)cc2)O1)NCC1CCCCC1	19	5[16.7 µM]
41	COc1ccc(S(=O)(=O)Nc2ccc3c(c2)CC(=O)N([C@H](C)CO)C[C@H](C)[C@@H](CN(C)S(=O)(=O)c2ccc(F)cc2)O3)cc1	40	25[16.7 µM]
42	COCC(=O)N(C)C[C@H]1Oc2cc(C3=CCCC3)ccc2S(=O)(=O)N([C@H](C)CO)C[C@@H]1C	5	12[16.7 µM]
43	CN1C(=O)c2cc(NC(=O)c3ccc4c(c3)OCO4)ccc2OC[C@@H]2O[C@H](CC(=O)O)CC[C@@H]21	3	-15[16.7 µM]
44	C[C@@H]1CN([C@@H](C)CO)C(=O)c2cc(NC(=O)CCCN(C)C)ccc2O[C@@H](C)CCCCO[C@@H]1CN(C)S(=O)(=O)c1ccc(Cl)cc1	14	2[16.7 µM]
45	C[C@@H]1CN([C@H](C)CO)C(=O)c2cc(NC(=O)CCC(F)(F)F)ccc2O[C@@H](C)CCCCO[C@H]1CN(C)S(C)(=O)=O	13	8[16.7 µM]
46	CC(=O)N(C)C[C@@H]1Oc2cc(-c3cccc(F)c3)ccc2S(=O)(=O)N([C@H](C)CO)C[C@@H]1C	17	-1[16.7 µM]
47	COc1ccccc1CNC(=O)C[C@@H]1C[C@H]2c3cc(NC(=O)CC4CC4)ccc3O[C@H]2[C@H](CO)O1	17	10[16.7 µM]
48	Cc1ccc(S(=O)(=O)Nc2ccc3c(c2)C(=O)N(C)[C@H]2CC[C@@H](CC(=O)O)O[C@@H]2CO3)cc1	6	4[16.7 µM]
49	Cc1ccc(S(=O)(=O)Nc2ccc3c(c2)CC(=O)N([C@@H](C)CO)C[C@@H](C)[C@@H](CN(C)S(=O)(=O)c2ccc(Cl)cc2)O3)cc1	12	-6[16.7 µM]
50	CO[C@H]1CN(C)C(=O)c2ccc(NC(=O)Nc3ccc(Cl)cc3)cc2OC[C@@H](C)N(C)C[C@@H]1C	-3	4[16.7 µM]
51	CCC(=O)N[C@@H]1CC[C@@H](CC(=O)OC)O[C@@H]1CO	-2	1[16.7 µM]
52	C[C@H](CO)N1C[C@H](C)[C@H](CN(C)C)Oc2ncc(/C=C/c3ccccc3)cc2C1=O	7&20	0&-1[16.7 µM]
53	COc1ccc(-c2cnc3c(c2)C(=O)N([C@@H](C)CO)C[C@@H](C)[C@@H](CN(C)C(=O)C2CCC2)O3)cc1	-3	-21[16.7 µM]
54	COCC(=O)Nc1ccc2c(c1)C(=O)N(C)[C@@H]1CC[C@H](CC(=O)NC3CCCC3)O[C@H]1CO2	-21	2[16.7 µM]
55	COCCNC(=O)C[C@@H]1CC[C@H](NS(=O)(=O)c2ccc(C)cc2)[C@H](CO)O1	-11	-3[16.7 µM]
56	COc1cccc(CNC(=O)C[C@@H]2CC[C@H](NC(=O)C3CCOCC3)[C@@H](CO)O2)c1	-6	-1[16.7 µM]
57	C[C@@H]1CN([C@@H](C)CO)S(=O)(=O)c2ccc(-c3ccncc3)cc2O[C@@H]1CN(C)C(=O)CC1CC1	-8	-15[16.7 µM]
58	CC(=O)N(C)C[C@@H]1Oc2cc(C#CC3CC3)ccc2S(=O)(=O)N([C@H](C)CO)C[C@H]1C	-3	12[16.7 µM]
59	CNC[C@@H]1Oc2ncc(C#Cc3ccccc3)cc2C(=O)N([C@H](C)CO)C[C@@H]1C	11	-7[16.7 µM]
60	C[C@@H]1CN([C@@H](C)CO)C(=O)c2cc(NC(=O)C3CCCCC3)ccc2O[C@@H](C)CCCCO[C@H]1CN(C)C(=O)NC1CCCCC1	0	-24[16.7 µM]
61	C[C@H](CO)N1C[C@H](C)[C@H](CN(C)C(=O)CCN2CCCCC2)Oc2ncc(C#Cc3ccccn3)cc2C1=O	3	-12[16.7 µM]
62	COC(=O)C[C@H]1CC[C@H]2[C@H](COc3ccc(NC(=O)c4ccc(OC)cc4)cc3C(=O)N2C)O1	10	10[16.7 µM]
63	C[C@@H]1CN([C@H](C)CO)C(=O)Cc2cc(NS(C)(=O)=O)ccc2O[C@@H]1CN(C)Cc1ccc(C(=O)O)cc1	-8	-58[16.7 µM]
64	CO[C@H]1CN(C)C(=O)c2cc(NC(C)=O)ccc2OC[C@H](C)N(Cc2ccccc2F)C[C@@H]1C	-26	-3[16.7 µM]
65	CCC(=O)Nc1ccc2c(c1)C(=O)N(C)C[C@H](OC)[C@@H](C)CN(C(=O)c1cccnc1)[C@H](C)CO2	-10	5[16.7 µM]
66	CN1C(=O)c2cc(NS(C)(=O)=O)ccc2OC[C@H]2O[C@@H](CC(=O)NCc3ccccc3)CC[C@H]21	47	-9[16.7 µM]
67	C[C@H](CO)N1C[C@H](C)[C@@H](CN(C)C(=O)c2ccccc2)OCCCC[C@H](C)Oc2ccc(NS(=O)(=O)c3ccccc3)cc2C1=O	-6	-75[16.7 µM]
68	CC(C)NC(=O)N(C)C[C@@H]1OCCCC[C@@H](C)Oc2ccc(NS(C)(=O)=O)cc2C(=O)N([C@H](C)CO)C[C@H]1C	13	3[16.7 µM]
69	C[C@H](CO)N1C[C@H](C)[C@@H](CN(C)Cc2ccccn2)Oc2ncc(-c3cccc(F)c3)cc2C1=O	-3	12[16.7 µM]
70	C[C@@H]1CN([C@@H](C)CO)C(=O)c2cc(NC(=O)CCC(F)(F)F)ccc2O[C@@H]1CN(C)S(=O)(=O)c1ccc(F)cc1	-6	17[16.7 µM]
71	COc1ccc(S(=O)(=O)N(C)C[C@H]2OCCCC[C@H](C)Oc3ccc(NC(=O)Nc4ccc5c(c4)OCO5)cc3C(=O)N([C@@H](C)CO)C[C@@H]2C)cc1	-15	6[16.7 µM]
